# gsp antag = antagonists of gsp mutant (McCune-Albright syndrome); gsp-mutant cells, cAMP HTRF, 30 min; control for the full effect not named in the record; Potency, µM (series often up to 76.9 µM), without a hit: at the top dose activity change, negative = inhibition, usual class: inhibitors; 0.4% of 340,000 active; AID 624288; active = falling curve of any shape with a large fitted effect; inconclusive = falling curve, mostly with a smaller effect; inactive = flat or rising curve; cell line not stated here;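 further: intracellular cAMP measured with PDE inhibitor Ro 20-1724 present during compound exposure; potency means the concentration at half of the fitted maximal effect; on the % scale 0 is the no-effect control and ±100 the full control effect; nearly all actives have a fitted effect of over 65% in size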
#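 HTRF cAMP measurement after 30 min RT detection following 30 min, 37C compound treatment alongside […] (added as 300 uM solution) in G418-selected cells seeded at 2000/well and grown 16–24 h.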
# CtBP-E1A inh = CtBP/E1A binding inhibition; AlphaScreen GST-E1A/His-CtBP binding, 1536-well; hits give low values; control for the full effect not named in the record; activity change, % (no concentration beside the values); 0.49% of 340,000 active; in the data active means activity change below about -65%; inconclusive means about -30% to -65%; inactive means above about -30%; further: on the % scale 0 is the no-effect control and ±100 the full control effect; compound concentration not given in the record
#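 In 5 uL wells, 23 nL compound meets equimolar GST-E1A and His-CtBP (5X stock 125 nM each) for 2 h, 37 °C. Beads (5X, 50 ug/mL) then 1 h, 37 °C, dark.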
# Six1-Eya2 inh = Six1/Eya2 interaction inhibition. Q15475+O00167. AlphaScreen GST-Six1/His-Eya2 binding, biochemical; hits give low values; control for the full effect not named in the record. activity change, % (concentration not given with the values). 0.56% of 360,000 active. AID 651725; in the data active = activity change below about -65%; inconclusive = about -30% to -65%; inactive = above about -30%; further: on the % scale 0 is the no-effect control and ±100 the full control effect
#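 Compounds are tested against tagged Six1 and Eya2 proteins bridged by glutathione donor and nickel acceptor beads; after a one-hour incubation at 37 °C without light, AlphaScreen emission is recorded.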
# D2 ag = human D2 receptor agonism in beta-arrestin assay; DiscoveRx PathHunter D2 beta-arrestin, luminescence, 90 min; 100% = 57 uM dopamine signal; activation, % (no concentration beside the values); 0.084% of 360,000 active; AID 624465; in the data active = activation above about 40%; inconclusive = about 15% to 40%; inactive = below about 15%; further: compound concentration not given in the record; the text of the record calls up to 30% inactive
# Target sequence (P14416 whole entry, looked up): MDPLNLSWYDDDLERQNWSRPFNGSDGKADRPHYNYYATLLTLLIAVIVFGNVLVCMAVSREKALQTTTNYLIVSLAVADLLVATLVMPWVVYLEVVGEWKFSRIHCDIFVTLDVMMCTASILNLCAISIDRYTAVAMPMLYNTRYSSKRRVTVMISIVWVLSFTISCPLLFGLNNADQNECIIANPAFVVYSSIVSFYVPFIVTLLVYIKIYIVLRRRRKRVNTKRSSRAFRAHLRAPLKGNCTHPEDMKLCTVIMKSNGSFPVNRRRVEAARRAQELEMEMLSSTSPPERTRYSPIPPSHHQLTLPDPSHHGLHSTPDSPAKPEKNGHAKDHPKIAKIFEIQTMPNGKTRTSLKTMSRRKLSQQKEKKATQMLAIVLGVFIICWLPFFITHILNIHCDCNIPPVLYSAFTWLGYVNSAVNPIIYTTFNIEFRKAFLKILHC
#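 DiscoveRx PathHunter D2 beta-arrestin cells (2,100/well) attached overnight, then compound-stimulated 90 min at 37 C in HBSS/10 mM HEPES/0.1% Tween-20 buffer; beta-galactosidase complementation read by luminescence after 1 h at ambient temperature. Dopamine 57 uM final (EC100) as control.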
# gsp ag = gsp mutant agonism; gsp mutant cells, cAMP HTRF, 30 min; control for the full effect not named in the record; Potency, µM (doses to about 76.9 µM), for the others: top-dose activation (cAMP increase), actives largely listed as activators; 0.13% of 340,000 active; active = well fitted activation curve with a large enough effect; inconclusive = small, poorly fitted or top-dose-only effect, or another doubt; inactive = no such curve, though single readings can be large or run the other way; cell line not stated here;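 further: phosphodiesterase inhibitor Ro 20-1724 added with compounds to block cAMP breakdown; potency means the concentration at half of the fitted maximal effect; nearly all actives have a fitted effect of over 60% in size; about a fifth of the inactives were tested at one dose only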
#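 Cells stably selected in G418 were plated at 2000/well, grown 16-24 hr, then given compounds in DMSO with the PDE inhibitor […] (300 uM solution added) for 30 min at 37C; cAMP was read by HTRF.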
# D2 PAM = human D2 receptor positive allosteric modulation. potentiation, % (no concentration beside the values). 0.23% of 360,000 active. DiscoveRx D2 beta-arrestin cells, luminescence, 90 min; 100% = 57 uM dopamine signal. AID 624464. P14416; active = potentiation of 50% or more; inconclusive = 30% to 50%; inactive = 30% or less;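 further: compound concentration not given in the record; tested on top of an EC20 dose of dopamine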
#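 PathHunter D2 cells, attached overnight at 37 deg C, received compound in DMSO plus dopamine at EC20 (50 nM final) for 90 min at 37 deg C. Beta-arrestin recruitment was read as luminescence after 1 h with detection reagent at ambient temperature.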
# The depositor's hits bear a star; ? = inconclusive; · = not tested or not shown; [ ] = remark or other dose.
molecule,gsp antag,CtBP-E1A inh,Six1-Eya2 inh,D2 ag,gsp ag,D2 PAM
CCn1c(SCc2cccc(C)c2)nnc1-c1ccc(C)cc1,-23%,-5,-2,-1.1,17%,-3
c1ccn2c(SCc3ccc4c(c3)OCCO4)nnc2c1,0%,-2,11,-2.3,?,-4
Cc1ccc(NC(=S)NC2CC3CCCC(C2)N3Cc2cccs2)cc1 (configuration not stated),7%,-1,-14,-3.0,-39%[inhibitor],-38
Cc1cc(C(=O)CSc2nc3ccccc3c(=O)n2C)c(C)n1Cc1ccc2c(c1)OCO2,?,0,-1,-0.4,-10%,3
OCCC1CN(Cc2nc(-c3ccc(F)cc3)cs2)CCN1CCc1ccccc1 (configuration not stated),-6%,-23,4,-1.3,?,-5
Cc1cccc(NS(=O)(=O)c2nnc(NC(=O)c3ccc(C)c(C)c3)s2)c1,-21%,1,-1,-0.4,-22%,-4
COC(=O)c1ccsc1-n1cc(C#N)c(=O)n(C)c1=O,11%,·,4,-2.7,15%,-6
Clc1cccc(Cc2c(-c3ccccc3)nc3c4ccccc4ccn23)c1,·,9,5,-1.8,·,0
CCc1nc2c(OCC(=O)c3ccc(Cl)cc3Cl)cccn2c1N(C=O)Cc1ccccc1,·,-28,0,-2.6,·,-6
COc1ccc(N(C)C(=O)Cc2c(C(=O)O)[nH]c3ccccc23)cc1,4%,0,-1,-2.5,-7%[15.4 µM],-4
CCOC(=O)[C@H]1[C@H]2COc3ccc(Br)cc3[C@H]2N2C(=O)CN(Cc3ccc(Cl)cc3)C(=O)[C@@]12C,-2%,-7,-10,-5.0,·,-3
CN(c1cccc(Cl)c1)S(=O)(=O)c1cccc(C(=O)NN2CCOCC2)c1,0%,·,-1,3.4,-23%,-1
O=C(Nc1cc([N+](=O)[O-])ccc1N1CCOCC1)c1cccs1,4%,-19,3,-1.2,?,-12
FC(F)(F)c1cc(-c2ccc(Cl)cc2)nc2ncnn12,-33%,-2,-2,-3.3,-8%,-9
CCOC(=O)N1CCN(c2ncnc3c2[nH]c2ccc(OC)cc23)CC1,-7%,-13,-12,3.8,?,24
O=C(c1ccco1)N1CCN(Cc2nnc(-c3cccc(Br)c3)o2)CC1,-4%,-23,5,1.3,18%,0
COC(=O)CCC(=O)NNC(=O)C1CC1(c1ccccc1)c1ccccc1 (configuration not stated),12%,-3,7,-0.1,-20%,-3
CC(C)O/C(=N/S(=O)(=O)c1ccc(Cl)cc1)c1ccccc1,2%,11,4,-0.3,16%,-6
O=C1C2C(C(=O)N1/N=C/c1ccco1)C1C=CC2C12CC2 (configuration not stated),7%,1,3,0.4,-6%,0
COC(=O)c1ccc(C(C(=O)NC2CCCCC2)N(Cc2ccccc2)C(=O)Cc2cccs2)cc1 (configuration not stated),12%,0,1,-1.2,10%,15
COc1cccc(NC(=O)COC(=O)c2ccc3c(c2)OCCO3)c1,·,1,3,-1.3,-25%,-10
COc1ccc(NC(=S)N(CCN2CCCCC2)Cc2ccco2)cc1,-7%,-5,-9,-3.7,-14%[15.4 µM],-17
O=C(c1ccccc1)c1cccc(NC(=O)c2ccco2)c1,1%,-6,-16,3.7,-2%,-11
Cc1ccc(SCC(=O)Nc2ccc3c(c2)C(=O)NC3=O)cc1,6%,2,-15,4.7,-36%[inhibitor],-10
CC(=O)N(c1ccccc1)c1ccccc1[N+](=O)[O-],·,3,1,-3.6,-18%,-2

# Copied from the list:
# CtBP-E1A inh result of c1ccn2c(SCc3ccc4c(c3)OCCO4)nnc2c1 : -2
# Six1-Eya2 inh result of CCc1nc2c(OCC(=O)c3ccc(Cl)cc3Cl)cccn2c1N(C=O)Cc1ccccc1 : 0

# (listing goes on)
molecule,gsp antag,CtBP-E1A inh,Six1-Eya2 inh,D2 ag,gsp ag,D2 PAM
CC(=O)c1cccc(NC(=O)c2ccc3c(=O)n4c(nc3c2)CCCCC4)c1,1%,-4,-7,3.3,18%[15.4 µM],1
CCOc1ccccc1C(=O)Nc1cccc2cccnc12,-7%,-2,11,-7.4,-60%[inhibitor],-5
CCN1C(=O)[C@H]2[C@H]3CN=C(SC)N3[C@@](CC)(C(=O)OC)[C@H]2C1=O,8%,-10,-5,-0.7,·,-2
Nc1ncnc2c1ncn2[C@H]1C[C@H](O)[C@@H](CO)O1,1%,1,-2,-4.9,·,-14
CCOC(=O)/C(C#N)=C1/C=Nc2ccccc2N1,-29%,-3,0,1.1,-4%,2
Cc1nc(SCC(=O)Nc2ccc(OCc3ccccc3)cc2)n[nH]1,-20%,7,1,-17,-27%,-6
CCCCS(=O)(=O)Nc1ccc2cn[nH]c2c1,14%,9,0,4.6,-12%[15.4 µM],29
OCCNc1nc(-c2ccccc2)c2cc(Cl)ccc2n1,?,10,12,-1.1,3%[15.4 µM],-1
COc1cccc(CNC(=O)C(=O)NCC2CCCN2S(=O)(=O)c2cc(C)ccc2C)c1 (configuration not stated),0%,-7,-1,-1.7,-30%,-4
COc1ccc(S(=O)(=O)N2CCC(C(=O)NN3CCCCC3)CC2)cc1OC,8%,6,3,7.6,?,-1
CN(c1ccccc1C(=O)N1CCOCC1)S(C)(=O)=O,12%,-2,-22,0.7,11%,-6
COC(=O)c1ccc(NC(=O)C2CCCO2)cc1 (configuration not stated),15%,3,2,-1.2,-15%,9
CCN1CCN(C(=S)c2ccc([N+](=O)[O-])cc2)CC1,-1%,-12,-1,-5.2,-49%[inhibitor],-29
C[C@@H]1CN([C@H](C)CO)C(=O)c2cc(Br)cnc2O[C@@H]1CN(C)Cc1ccc(F)cc1,·,-4,22,-9.9,?,-9
CN(C)C(=O)N1CCN(C(=O)N2CCOCC2)CC1,-4%,4,7,-5.0,19%[15.4 µM],-5
Cc1ccccc1OCC(=O)Nc1ccc(N2CCN(C(=O)c3ccco3)CC2)cc1,?,4,-20,0.3,18%[15.4 µM],0
CCOC(=O)C1CCN(C(=O)/C=C/c2ccccc2OC)CC1,0%,0,2,0.9,-1%,-12
Cc1ccc(C)c(COC(=O)c2cccc(S(=O)(=O)N3CCCC3)c2)c1,-13%,0,43,-4.4,-24%,-13
O=C1CCCC2=C1C(c1ccncc1)c1c(nc(SCc3ccccc3)[nH]c1=O)N2 (configuration not stated),-15%,-4,1,0.9,0%[15.4 µM],-15
Cc1ccc(/C=C(\CCC(=O)O)c2nc3ccccc3s2)cc1[N+](=O)[O-],-53%,4,-18,-2.8,-31%[inhibitor],-14
CC(=O)Nc1ccc(N=NC2C(=O)N(C(N)=S)N=C2C)cc1 (configuration not stated),?,-9,-11,-9.8,14%,-5
Oc1c(Br)cc(Cl)cc1C=Nc1ccccc1Br,-3%,-7,1,-3.6,-14%,-24
CCCCC1=CC2=CC(=O)C(C)(OC(=O)CC)C(=O)C2=CN1c1cccc(C#N)c1 (configuration not stated),-2%,-20,-15,2.7,·,0
CCN(C(=O)CSc1ncn[nH]1)c1cccc2ccccc12,5%,-1,0,-4.8,-11%,-14
COc1cccc(NC(=O)C2C3C=CC(O3)C2C(=O)NCc2cccnc2)c1 (configuration not stated),0%,-3,2,-2.2,?,-22
O=C(COc1ccc(S(=O)(=O)N2CCc3ccccc32)cc1Cl)NCc1ccccn1,-18%,-11,-6,-1.1,-6%,-1
CCN=C1S/C(=C\c2sccc2C)C(=O)N1CC,7%,5,0,0.9,-4%[15.4 µM],-6
Cc1ccccc1C(=O)OCC(=O)Nc1cccc(S(=O)(=O)NC2=NCCC2)c1,-6%,-14,-12,-1.0,20%,-2
CC1(c2ccccc2)NC(=O)N(NC(=O)CSc2n[nH]c(N)n2)C1=O (configuration not stated),4%,·,10,-6.0,3%,-12
CC(=O)Nc1ccc(NC(=O)COc2ccccc2C(=O)Nc2cccc(Cl)c2Cl)cc1,6%,1,2,-1.6,-103%[inhibitor],0
CC(Oc1ccccc1)C(=O)N=C1SC2CS(=O)(=O)CC2N1c1cccc(F)c1 (configuration not stated),-18%,10,-2,-2.7,3%,16
O=C(OCc1nnc(-c2ccccc2)o1)c1cccnc1Cl,-1%,-14,0,0.6,-1%[15.4 µM],-3
CCN(c1ccccc1)S(=O)(=O)c1ccc(N2CCN(c3ccccc3O)CC2)nc1,-14%,-6,-5,6.0,?,-1
O=C(NCc1ccco1)/C(=C/c1ccco1)NC(=O)c1ccccc1,4%,2,8,1.6,?,-5
NC(=O)C1CCN(C(=O)CN2CCCc3ccccc32)CC1,-3%[15.4 µM],-7,-5,-1.0,8%,8
Cc1cccc2sc(N(CCN(C)C)C(=O)/C=C/c3cccs3)nc12,-5%,-3,-11,-4.1,-22%,-43
Cc1nnc(SCC(=O)Nc2nccs2)[nH]c1=O,6%,4,-7,-2.1,-16%,-14
CNC(=O)CSc1nc2c(c(=O)n(C)c(=O)n2C)n1Cc1ccc(C)cc1,12%,13,1,-2.7,-63%[inhibitor],-3
Cc1ccc(-c2noc(-c3ccccc3C(=O)NCC3CCCO3)n2)cc1 (configuration not stated),-9%,0,4,-2.5,-37%[inhibitor],-2
O=C(N/N=C\c1cccnc1)c1cc(-c2ccccc2)nc2c(Cl)cccc12,-5%,0,-4,2.8,?,-9
Cn1nnc2cc(NC(=O)N3CCN(c4ccccn4)CC3)ccc21,17%,0,3,-1.4,-31%[inhibitor],-17
COc1cc(/C=N/NC(=O)c2ccncc2)ccc1OC(=O)c1ccco1,-6%,-20,-5,-0.1,-35%[inhibitor],-1
O=C(CSc1ccc(-c2cccc([N+](=O)[O-])c2)nn1)N1CCCCCC1,-20%,0,-6,2.5,-11%[15.4 µM],0
O=C(NCc1cccs1)c1cccnc1SCCS(=O)(=O)c1ccc(C(F)(F)F)cn1,-2%,7,8,-0.3,-19%[15.4 µM],-6
CCOc1ccc(C(=O)N2CCN(S(=O)(=O)c3cccs3)CC2)c(OCC)c1,-10%,0,4,1.8,1%,-4
COC(=O)C1CCN(C(=O)C2CCC(=O)N(CCc3cccc(F)c3)C2)CC1 (configuration not stated),11%,2,0,1.3,?,2
CC(/C=C/C1(O)C(C)CC(=O)CC1(C)C)OC1OC(CO)C(O)C(O)C1O (configuration not stated),6%,9,8,2.6,·,5
COc1cc(OC)cc(C(=O)N2CC(=O)Nc3ccccc32)c1,20%,-1,11,-3.5,-6%[15.4 µM],-6
CNC(=O)/C(C#N)=C/c1cn(CC(=O)OC)c2ccccc12,0%,-5,2,-1.0,-4%[15.4 µM],-2
NC(=O)c1ccc(NC(=O)c2cccc(Oc3ccccc3)c2)cc1,6%,2,-2,-4.9,0%[15.4 µM],-5
COC(=O)C(C)(C)ONC(=O)Nc1ccc([N+](=O)[O-])cc1,-9%,5,3,4.0,10%,1

# Screening results (PubChem)
